Screening results as filed in PubChem BioAssay.
Tg IFNy HTS – T. gondii growth inhibition with IFN-gamma, primary screen, cell-based; Toxoplasma gondii growth in IFN-gamma-treated host cells; stronger effect = lower value; reference of the scale not given here; activity change, negative = inhibition, %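 (about 20 µM by stock and volumes)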; 3.8% of 69,000 active; AID 1259416, 2018;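 active = below -70%; inconclusive = fit judged invalid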;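 also: host cells are HeLa cells infected with Toxoplasma gondii; parasite growth read as luciferase light; one replicate is shown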
Numbers without * were called inactive; ? = inconclusive. Not all compounds are listed. The share of hits here may be higher or lower than overall.

SMILES	Tg IFNy HTS
CO[C@@H](CN(C)Cc1ccc2c(c1)OCO2)[C@@H](C)CN(C(=O)Nc1ccc(F)cc1)[C@@H](C)CO	40.9
Cn1cc(N2CC3(COCCN(C(=O)C(C)(C)C)C3)OCC2=O)cn1 (stereo unspecified)	-8.3
COc1cccc(-c2cn(CC[C@H]3CC[C@@H](NS(=O)(=O)c4ccccc4Cl)[C@@H](CO)O3)nn2)c1	-49.5
O=C(Nc1cc(C(F)(F)F)cc(C(F)(F)F)c1)c1cc(Cl)ccc1O	-80.5*
CO[C@@H]1CN(C)C(=O)c2cc(NC(=O)c3ccc(F)cc3)ccc2OC[C@H](C)N(C(=O)CC2CC2)C[C@@H]1C	-3.4
CCOc1ccc(NC(=O)N2CCN(Cc3nc(-c4ccc(OCC)cc4)oc3C)CC2)cc1	1.0
CCCOC1CCCN(C(=O)CCNC(=O)c2ccc(F)cc2)C1 (stereo unspecified)	-1.9
COc1ccccc1NC(=O)COC(=O)c1cc(-c2ccccc2)nc2ccccc12	-31.7
O=C(c1ccco1)N1CCOC2C(COc3ncccn3)CCC21 (stereo unspecified)	5.4
Cn1ccnc1SCCNc1cc(N2CCOCC2)ncn1	22.8
c1cc(-c2nccn2Cc2ccco2)cc(-n2cccn2)c1	-7.4
CS(=O)(=O)N1CCN(c2ccc3ccc(C(=O)NCC4CC4)cn23)CC1	1.9
O=C(c1ccc2c(c1)CCO2)N1CCOC(c2ccc(Cl)c(Cl)c2)C1 (stereo unspecified)	-20.4
O=C(COc1ccc(F)cc1)NCCc1csc(-c2ccc(F)cc2)n1	-21.3
CC(=O)Nc1ccc(Nc2nc(-c3nnc(-c4ccc(Cl)cc4)o3)nc3ccccc23)cc1	61.6
CC(=O)Oc1c2occc2cc2ccc(=O)oc12	14.5
CC(=O)NC1CCN(c2ccc(C(=O)NCCCc3ccccn3)cn2)C1 (stereo unspecified)	6.2
CCCNC(=O)N(C)C[C@H]1Oc2cc(C#C[C@H](C)O)ccc2S(=O)(=O)N([C@H](C)CO)C[C@H]1C	-2.0
COCc1ccc(CN2CCC3(CC2)C(=O)N(C2Cc4ccccc4C2)C(=O)N3CC(C)C)o1	16.1
Cc1nnsc1C(=O)N1C2CCC1CC(O)(Cn1c(C)cc3ccncc31)C2 (stereo unspecified)	-10.8
CN1CCn2c(-c3ccccc3)cnc2C12CCN(C(=O)N1CCOCC1)CC2	2.0
O=C(COc1cccc2nsnc12)NCCn1c(=O)oc2ccccc21	-6.3
COC(=O)[C@]1(C)N[C@H](c2cnn(-c3ccccc3C)c2)[C@@H]2C(=O)N(C)C(=O)[C@@H]21	5.5
O=C(C[C@H]1C=C[C@H](NC(=O)c2cnccn2)[C@@H](CO)O1)NCc1ccccc1F	-44.1
COCC(=O)N1[C@@H](C#N)[C@@H](c2ccccc2-c2ccccc2F)[C@@H]1CO	-1.8
Cc1cccnc1C(Cc1ccsc1)NC(=O)CN(C)C1CCS(=O)(=O)C1 (stereo unspecified)	20.3
CCN1CCN(C(=O)CCCc2cn[nH]c2)C(C)C1=O (stereo unspecified)	-2.6
c1nc(-c2ccc(-n3cnnc3)cc2)cs1	0.8
CN1C(=O)CC(c2ccccc2)C12CCN(C(=O)[C@H]1CCCO1)CC2 (stereo partly specified)	0.3
COc1ccc(-c2nc(N3CCN(c4cc(C)ccc4C)CC3)c3ccccc3n2)cc1	14.2
CC(C)n1ccnc1CNC(=O)CCc1c[nH]c2ccccc12	-5.9
c1ccc(CN2CCOCC3(CC(Cn4cnnc4)CO3)C2)cc1 (stereo unspecified)	0.3
CCC(=O)NCCc1csc(-c2ccc(F)cc2)n1	100.5
COc1cc(C(NC(=O)CC(C)C)NC(=O)CC(C)C)ccc1OCc1ccccc1	22.8
O=C(O)CCC(=O)N1CCC2(CC(=O)N(c3cncnc3)C2)C1 (stereo unspecified)	2.0
Cc1ccsc1[C@@H]1CCN(C(=O)c2ccc3c(c2)nnn3C)C[C@H]1O	-7.8
Cc1cccc(C)c1Oc1ncccc1CNC(=O)c1cccnn1	-15.5
C[C@H](CO)N1C[C@H](C)[C@@H](CN(C)Cc2cccc3c2OCCCO3)OCc2ccccc2-c2ccccc2C1=O	-15.9
Cc1nc(-c2ccc(F)cc2)sc1CCNC(=O)c1cccc(C(F)(F)F)c1	-73.8*
CCC(C)NC(=O)Cn1ncc2c(N3CCCCCC3)ncnc21 (stereo unspecified)	-23.4
CS(=O)(=O)NC1CCN(CC2(O)CCCN(CCc3ccccc3)C2=O)CC1 (stereo unspecified)	3.5
CC(C)CCN(CCC(C)C)C(CO)(CO)CO	-4.4
Cc1ccc(NC(=O)c2c(O)c3cccnc3n(-c3cccc(F)c3)c2=O)c(C)c1	-32.7
COc1ccc(-n2cc(-c3ccnc(NCCC4CCCN4C)n3)cn2)cc1 (stereo unspecified)	1.2
CN(Cc1ccccc1)C1CCN(Cc2ccsc2)C(C(=O)O)C1 (stereo unspecified)	3.3
Cc1cc(C(=O)N2CCCC(Nc3ccc4c(c3)OCCO4)C2)c(=O)[nH]c1C (stereo unspecified)	-4.7
COc1ccc(OCC(=O)N2CCC(C(=O)NCCc3csc(-c4ccccc4)n3)CC2)cc1	12.4
COc1ccc(CN2CCC3(CC2)CN(C(=O)Cc2ccc(Cl)cc2)C3)cc1F	-16.7

The last 7 compounds of the section before lead into the next.
SMILES	Tg IFNy HTS
CC(C)CCN(CCC(C)C)C(CO)(CO)CO	-4.4
Cc1ccc(NC(=O)c2c(O)c3cccnc3n(-c3cccc(F)c3)c2=O)c(C)c1	-32.7
COc1ccc(-n2cc(-c3ccnc(NCCC4CCCN4C)n3)cn2)cc1 (stereo unspecified)	1.2
CN(Cc1ccccc1)C1CCN(Cc2ccsc2)C(C(=O)O)C1 (stereo unspecified)	3.3
Cc1cc(C(=O)N2CCCC(Nc3ccc4c(c3)OCCO4)C2)c(=O)[nH]c1C (stereo unspecified)	-4.7
COc1ccc(OCC(=O)N2CCC(C(=O)NCCc3csc(-c4ccccc4)n3)CC2)cc1	12.4
COc1ccc(CN2CCC3(CC2)CN(C(=O)Cc2ccc(Cl)cc2)C3)cc1F	-16.7
CO[C@H]1CN(C(=O)NCc2ccccc2)[C@H]2COC[C@@H]12	6.1
Cc1cccc2c3c([nH]c12)C(=O)CC(C)(C)S3	39.0
Cc1c(Cl)cccc1NC(=O)c1nc(Nc2ccccc2)c2ccccc2n1	68.2
c1cc(-c2ccc3[nH]ncc3c2)n2nccc2c1	-0.9
CCOc1ccc(-c2nc(Cn3ccn4nc(-c5ccc(F)cc5)cc4c3=O)c(C)o2)cc1OC	201.1
Cc1ccc(-c2cc(=O)[nH]c(N3CCN(Cc4ccc5c(c4)OCO5)CC3)n2)cc1	?
O=C(C[C@H]1CC[C@@H]2NC[C@@H](O)COC[C@H]2O1)NC1Cc2ccccc2C1	7.2
COC(=O)c1cc(C)nc2c1c(=O)n(Cc1nc(-c3cccc(Br)c3)oc1C)c(=O)n2C	1.1
CNC(=O)c1ccc(-c2nc(CN3CCN(S(C)(=O)=O)CC3)c(C)o2)cc1	-8.2
COc1ncccc1NC(=O)c1ccnn1-c1ccc2ccc(-c3cccnc3)cn12	-14.3
CC1=C(C(=O)NCCOc2ccc(F)cc2)C(c2cccnc2)NC(=O)N1 (stereo unspecified)	-3.5
CC(C)CC(NC(=O)CNC(=O)C1O[C@@H]2OC(C)(C)O[C@@H]2[C@H]2OC(C)(C)O[C@@H]12)C(=O)O (stereo partly specified)	4.7
CC(C)NC(=O)Nc1ccc2c(c1)C(=O)N([C@H](C)CO)C[C@@H](C)[C@H](CN(C)C(=O)C1CCCCC1)OCCCC[C@H](C)O2	358.0
CCOc1ccc2nc(SCC(=O)OC(C)C)c(C)cc2c1	14.9
CN1C(=O)CCc2cc(NC(=O)c3cccc(C(F)(F)F)c3)ccc21	-6.2
COCC(=O)N1C[C@H]2[C@@H](c3ccccc31)[C@H](CO)N2Cc1cc(F)ccc1F	-0.9
Cc1ccc(C2=NC(c3ccc(F)cc3)NC(c3ccccc3O)C2)cc1 (stereo unspecified)	-10.6
CCc1cc(CN(C)C(=O)c2nc3ccccc3[nH]c2=O)on1	15.9
CC1(C)CCC(c2ccc(Cl)cc2)=C(CN2CCN(c3ccc(C(=O)NS(=O)(=O)c4ccc(N[C@H](CCN5CCOCC5)CSc5ccccc5)c(S(=O)(=O)C(F)(F)F)c4)cc3)CC2)C1	-72.1*
COc1cccc(NC(=O)N2CC(=O)N3[C@H](C2)[C@H](c2ccc(C#CCC4CCCC4)cc2)[C@@H]3CO)c1	-58.4
N#C[C@@H]1N[C@@H](CO)[C@@H]1c1ccc(C#CC2CCCCC2)cc1	21.0
O=C1C[C@H]2CC[C@@H](CN1)N2C(=O)C1CCN(Cc2ccco2)CC1	-1.7
COc1ccc(CN2CC3(COC(C(=O)N4CCCC4)C3)c3ccccc32)cc1 (stereo unspecified)	-78.5*
CN1C(=O)c2cc(NS(=O)(=O)c3ccccc3F)ccc2OC[C@H]2O[C@@H](CC(=O)NC3Cc4ccccc4C3)CC[C@H]21	-20.7

For reference, six of the compounds above:
SMILES	Tg IFNy HTS
CC1(C)CCC(c2ccc(Cl)cc2)=C(CN2CCN(c3ccc(C(=O)NS(=O)(=O)c4ccc(N[C@H](CCN5CCOCC5)CSc5ccccc5)c(S(=O)(=O)C(F)(F)F)c4)cc3)CC2)C1	-72.1*
COc1cccc(NC(=O)N2CC(=O)N3[C@H](C2)[C@H](c2ccc(C#CCC4CCCC4)cc2)[C@@H]3CO)c1	-58.4
N#C[C@@H]1N[C@@H](CO)[C@@H]1c1ccc(C#CC2CCCCC2)cc1	21.0
O=C1C[C@H]2CC[C@@H](CN1)N2C(=O)C1CCN(Cc2ccco2)CC1	-1.7
COc1ccc(CN2CC3(COC(C(=O)N4CCCC4)C3)c3ccccc32)cc1 (stereo unspecified)	-78.5*
CN1C(=O)c2cc(NS(=O)(=O)c3ccccc3F)ccc2OC[C@H]2O[C@@H](CC(=O)NC3Cc4ccccc4C3)CC[C@H]21	-20.7

Additional records.
SMILES	Tg IFNy HTS
CCc1nnc(-c2ccc(OC)c(NC(=O)C(c3ccccc3)N3CCCCC3)c2)o1 (stereo unspecified)	0.5
COc1cccc(OC)c1C(=O)c1ccncc1	-23.8
Cc1nc(-c2ccc(F)cc2)sc1CCNC(=O)C(=O)Nc1cccc(Cl)c1C	-5.9
COCC#Cc1ccc([C@@H]2[C@@H](CO)N3C(=O)CN(C(=O)C4CCCCC4)C[C@H]23)cc1	20.8
COc1ccc(NC(=O)Cc2cccs2)cc1OC	8.3
Cc1c(-c2ccccc2)nnn1-c1cc(Cl)cc(Cl)c1	52.5
O=C(c1ccc2c3c(cccc13)CC2)C1CCCN(C(=O)c2cn3ccccc3n2)C1 (stereo unspecified)	6.9
Cn1cnnc1Sc1ccc(-c2nccn2-c2ccc3c(c2)COC3)o1	4.2
COc1cccc(CC(=O)N2CCC3(CC2)NC(=O)c2cc(C)ccc2N3C)c1	-50.8
O=C(N[C@@H]1CC[C@@H](CCNS(=O)(=O)c2ccc(F)cc2)O[C@@H]1CO)C1CCC1	1.9
Cc1ccc(CN2CCC3(CC2)NC(=O)CC3c2cnn(C)c2)o1 (stereo unspecified)	-2.0
CCOC(=O)c1ccc2c(c1)N(Cc1nc(-c3cccc(C)c3)oc1C)C(=O)c1ccccc1S2	-42.8
Cc1ccc(S(=O)(=O)N[C@H]2CC[C@@H](CC(=O)NCc3ccncn3)O[C@H]2CO)cc1	-31.0
CCOC(=O)c1ccc(NC(=O)C(C(C)C)N2C(=O)c3ccccc3C2=O)cc1 (stereo unspecified)	5.2
O=C(Nc1ccc2c(c1)OCO2)c1cc2nc(-c3ccco3)cc(C(F)(F)F)n2n1	-53.7
NS(=O)(=O)c1ccc(NC(=O)c2ccc(C34CC5CC(CC(C5)C3)C4)o2)cc1	-13.6
CCOc1ccc(-c2noc(-c3c(O)c4ccc(F)cc4n(CC)c3=O)n2)cc1	76.5
COc1ccc(NC(=O)N2C[C@H](O)COC[C@@H]3O[C@@H](CC(=O)N4CCCCC4)CC[C@H]32)cc1	-5.3
Cc1nc(CCNC(=O)C2CCN(S(=O)(=O)c3ccc(C(C)(C)C)cc3)CC2)cs1	17.6
Cc1ccc(S(=O)(=O)Nc2cccc(-c3nnc(Cc4cc(F)cc(F)c4)o3)c2)cc1	-38.2
C[C@@H]1CC(=O)NCC/C=C\C[C@H](c2ccc3c(c2)OCO3)NC1=O	-36.2
Cn1c(=O)c2c(ncn2Cc2ccccc2)n(C)c1=O	17.7
CN1CCC(N2CCN(C(=O)Cn3cc(-c4ccc(F)cc4)oc3=O)CC2)CC1	234.4
Cc1cccc(Cc2c(C)[nH]n(-c3nc4ccccc4[nH]3)c2=O)c1	-124.0*
Cc1noc(C)c1S(=O)(=O)N1CCC(C(=O)NCCc2csc(-c3ccccc3)n2)CC1	-40.9
C[C@@H]1CN([C@H](C)CO)C(=O)CCCn2nncc2CO[C@H]1CN(C)C(=O)c1cc(-c2ccccc2)on1	246.2
CS(=O)(=O)N1CCC2(CC1)Cn1c(cc3ccccc31)C(=O)O2	46.8
CCn1c(-c2cc(NC(=O)c3cncc(Br)c3)n[nH]2)cc2cc(OC)ccc21	37.4
CN1C(=O)c2cc(NC(=O)C3CCOCC3)ccc2OC[C@H]2O[C@@H](CC(=O)NCCc3ccncc3)CC[C@H]21	7.4
COCCNC(=O)c1cncc(NS(=O)(=O)c2ccc(NC(C)=O)cc2)c1	33.4
CS(=O)(=O)N1[C@@H](C#N)[C@@H](c2ccc(C#Cc3cccc(F)c3)cc2)[C@@H]1CO	22.2
CN(C)CCN(C)C1CCCN(C(=O)c2cnc3c(c2)nnn3C)C1 (stereo unspecified)	6.1
O=C(c1ccco1)N1CCc2c([nH]c3ccccc23)C1c1ccc(F)cc1 (stereo unspecified)	-39.4
CC(C)(C)c1ncc2c(n1)CN(C(=O)c1ccc(-n3cnnn3)cc1)C2	-7.8
CC(C)OCCCNCc1ccc(F)cc1	-6.2
c1ccc(-n2nnnc2CSc2nc3ccccc3[nH]2)cc1	-0.7
CC1(C)C2CCC1(C)C(OCC[N+](C)(C)CC(=O)OC1CCCCC1)C2 (stereo unspecified)	8.2
